Assay outcomes from PubChem BioAssay.
Mtb hypoxia inh: Mtb hypoxia fluorescent reporter inhibition. M. tuberculosis hypoxia-regulated fluorescent reporter, fluorescence. 0.1% of 300,000 active. fluorescence inhibition, % (no concentration beside the values);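 active = 35 to 45% if threefold the growth effect, above 45% if 1.5-fold the growth effect; inactive = the rest, general growth blockers included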;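 also: wells of about 50 µL received 100 nL stock; 0% = vehicle wells and 100% = reference inhibitor wells; whole bacteria with a GFP reporter of the hypoxia response; strong numbers were not always called active; many hits fall short of the cut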
PrP UTR inh: suppresses PrP 5' UTR mRNA reporter expression; cell-based PrP 5' UTR mRNA reporter, plate reader; inhibition, % (test concentration not listed); 0.35% of 340,000 active; AID 488862;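 active = every replicate at 50% or more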;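 also: 0 = median of the neutral control wells; tested in H4 reporter cells; numbers are from one replicate; inactives centre near -14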
ugtP null kill: growth inhibition of S. aureus ugtP deletion strain | 0.54% of 330,000 active | S. aureus RN4220 ugtP deletion, OD600 growth, 16 h; some inactives read as strong as hits | AID 1259309 | growth inhibition, % (test concentration not listed);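 active = z-score under -3 and OD600 up to 0.15 on both plates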;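 also: plate controls were untreated wells for no effect and antibiotic for full effect; wells of about 80 µL received 100 nL stock; the first replicate is given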
RN4220 kill: S. aureus RN4220 growth inhibition; OD600, 16 h; inhibition, % (no concentration beside the values); 0.33% of 330,000 active; AID 1259311;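 active = z-score of -3 or lower and OD600 up to 0.18 on both plates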;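 also: plate controls were untreated cells for no effect and reference antibiotic for full effect; stock transfer was 100 nL into about 80 µL; one replicate is shown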
BJeLR lethal: BJeLR cell viability loss; BJeLR (HRASV12) viability, CellTiter-Glo ATP luminescence, 48 h; reference of the scale not given here; inhibition, % (concentration not given with the values); 0.17% of 300,000 active; AID 1554;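 active = replicate mean above 50%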;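 also: 50 nL library stock added to about 25 µL; numbers are from one replicate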
Autofluor counter: compound fluorescence in toxin protease inhibitor counterscreen; compound autofluorescence counterscreen, microsphere flow cytometry; active compounds read high; fluorescence intensity (test concentration not listed); 3.1% of 360,000 active;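 active = at least 3 SD above the mean of all compounds, about 16000 in these data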;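 also: 100 nL of 1 mM stock went into each well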
Mtb hypoxia inh growth: second read-out of Mtb hypoxia inh, no call of its own (marks repeat the call); growth inhibition, %; measured here: M. tuberculosis growth (absorbance);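 0% = vehicle and 100% = reference antibiotic; read after six days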
Starred values were filed as active, the others as inactive; · = no result given. Outcome played no part in choosing rows (roughly 3.9% active in at least one column).

Molecule	Mtb hypoxia inh	Mtb hypoxia inh growth	PrP UTR inh	ugtP null kill	RN4220 kill	BJeLR lethal	Autofluor counter
CCn1nc(C)cc1C(=O)N1CCc2c([nH]c3ccccc23)C1c1cc(F)ccc1F (configuration not stated)	-13	-4	-50	-7	-2.8	0	4722
O=c1c(C(c2ccccc2)c2c(O)nc3n(c2=O)CCCS3)c(O)nc2n1CCCS2	10	1	-9	5	4.2	7	4330
Cc1ccccc1S(=O)(=O)Cc1ccc(C(=O)NCCN(CC(C)C)CC(C)C)o1	-3	-6	-10	-2	-4.0	-2	3082
CCN1C(=O)/C(=C/c2cn(C)nc2C)SC1=S	3	10	-32	0	5.3	-7	10468
Cc1ccc(S(=O)(=O)NC(C)(C)CSc2nnc(Nc3ccccc3)s2)cc1	16	22	-19	-19	7.8	-4	4292
O=C(NC1CCS(=O)(=O)C1)/C(=C\c1ccccc1)NC(=O)c1ccccc1 (configuration not stated)	-7	2	-6	-2	-6.0	1	2631
Cc1ccc(Cl)cc1-n1ncc2c(NNC(=O)c3ccco3)ncnc21	7	9	-13	-8	1.1	-1	4504
Cc1cccc(OC(C)C(=O)N2CCCN(C)CC2)c1C (configuration not stated)	6	4	-8	1	1.9	-3	4906
COc1ccc(S(=O)(=O)N(C)C)cc1NCC(=O)Nc1ccc(F)cc1F	1	4	2	12	5.5	1	2414
CN(CC(=O)Nc1ccccc1C(F)(F)F)C(=O)c1ccc(-c2ccc(Cl)cc2)o1	11	3	-14	-1	1.8	4	6968
CC(=O)Nc1ccc(S(=O)(=O)Nc2nc(CN3CCOCC3)nc3sc4c(c23)CCCC4)cc1	2	-1	-8	0	8.0	·	3372
CC(C)CN(C(=O)CN(C)C(=O)Cc1ccccc1Cl)c1c(N)n(CC(C)C)c(=O)[nH]c1=O	-3	-4	-5	8	2.3	7	5796
Cn1c(=O)oc2cc(S(=O)(=O)NCCC(=O)NC3CCCc4ccccc43)ccc21 (configuration not stated)	3	7	-40	2	3.5	6	20326*
CCOC(=O)C1=C(c2ccccc2)N=c2s/c(=C\c3cccc(O)c3)c(=O)n2C1c1cccs1 (configuration not stated)	·	·	-11	·	·	-5	7442
Cc1ccc(OCCC(=O)OCC(=O)Nc2ccc(Cl)cn2)cc1	0	9	-11	-3	-13	7	3194
COc1ccc(-c2csc(NC(=O)COC(=O)C3=COCCO3)n2)cc1	18	-5	-82	-2	-1.1	1	3290
CCn1c(Cc2ccccc2)nnc1SCC(=O)Nc1nc(C)c(C)s1	8	8	-11	-3	5.3	8	21539*
CCc1ccccc1NC(=O)N[C@H](C(=O)O)C(C)C	·	·	-10	·	·	9	2870
COc1ccc(-c2noc(-c3ccccc3C(=O)Nc3cccnc3)n2)cc1	·	·	-14	0	2.9	7	3868
O=C(c1cnsn1)N1CCC(CO)(Cc2ccc(Cl)cc2)CC1	14	11	-16	9	10	-3	5900

Two of the compounds above, as labelled records.
compound: CCN1C(=O)/C(=C/c2cn(C)nc2C)SC1=S
  Mtb hypoxia inh: 3
  Mtb hypoxia inh growth: 10
  PrP UTR inh: -32
  ugtP null kill: 0
  RN4220 kill: 5.3
  BJeLR lethal: -7
  Autofluor counter: 10468
compound: O=c1c(C(c2ccccc2)c2c(O)nc3n(c2=O)CCCS3)c(O)nc2n1CCCS2
  Mtb hypoxia inh: 10
  Mtb hypoxia inh growth: 1
  PrP UTR inh: -9
  ugtP null kill: 5
  RN4220 kill: 4.2
  BJeLR lethal: 7
  Autofluor counter: 4330

The list continues.
Molecule	Mtb hypoxia inh	Mtb hypoxia inh growth	PrP UTR inh	ugtP null kill	RN4220 kill	BJeLR lethal	Autofluor counter
Cc1cc(C)c(-n2c(SCCS(=O)(=O)c3ccc(F)cc3)n[nH]c2=O)c(C)c1	18	11	-4	9	4.1	-5	5891
CCc1ccc(N2CC(O)(c3cccs3)[N+]3=C2SCCC3)cc1 (configuration not stated)	-8	0	-4	2	3.0	·	3318
O=C(c1ccco1)N1CCN(C(c2ccccn2)c2nnnn2C2CCCC2)CC1 (configuration not stated)	6	7	-14	0	3.7	-5	5311
Cn1cccc1C(=O)OCc1cc(-c2ccco2)on1	3	3	-72	8	11	·	8385
CCS(=O)(=O)NCC(c1ccco1)N1CCN(c2ccccc2F)CC1 (configuration not stated)	6	15	-16	6	-0.6	-4	2564
O=C(CCNS(=O)(=O)c1ccccc1)NCCCSc1ccccc1	8	-17	49	5	-1.9	7	5656
CCCC(=O)Nc1cccc(C(=O)Nc2nccs2)c1	7	10	-25	-16	4.2	-13	8943
COc1ccc(Nc2nc(-c3cccnc3)nc3ccccc23)cn1	9	2	-16	2	3.6	0	5768
c1csc(-c2nc3nc4ccccc4nc3n2Cc2ccc3c(c2)OCO3)c1	10	9	-34	-3	32	·	2888
Cc1c(CCC(=O)N2CCC[C@H]2C(=O)O)c(=O)oc2cc3oc4c(c3cc12)CCCC4	·	·	31	11	2.7	2	4925
COc1ccc(-n2nnnc2SCC(=O)N(C)C2CCS(=O)(=O)C2)cc1 (configuration not stated)	-1	9	-4	11	1.5	·	3965
Brc1c(CSc2nc3ccccc3s2)nc2ncccn12	-18	-3	-129	1	0.1	3	2127
COC(=O)Cc1c(O)ccn(CCc2ccccc2)c1=O	6	11	9	7	0.4	-10	3289
CC1=C(C(=O)OCC2CCCO2)C(c2ccc(F)cc2)NC(=O)N1 (configuration not stated)	9	5	-32	7	4.4	·	2617
CC1Oc2ccccc2C(=O)N(CC(=O)c2ccc3c(c2)OCCO3)C1=O (configuration not stated)	-2	2	-18	8	2.4	8	5076
COc1ccc(OCC(=O)NNC(=O)c2c(-c3ccccc3Cl)noc2C)cc1	6	7	-8	0	1.1	-4	4345
C=CCOC(=O)C1=C[C@@H](c2ccc3c(c2)OCO3)C[C@@H](OCCCCO)O1	·	·	-12	·	·	-6	3321
O=C(OCc1cc2ccccc2[nH]c1=O)c1ccc([N+](=O)[O-])cc1	12	0	-10	0	7.8	4	3616
O=C(NC1(C(F)(F)F)C(=O)Nc2c1c(=O)[nH]c(=O)n2-c1ccccc1)c1cccnc1 (configuration not stated)	-4	-10	1	1	-1.4	·	12945
COc1cccc(NC(=O)c2ccccc2-c2nc(-c3ccc(F)cc3)no2)c1	-9	-5	-19	-7	-9.2	5	7929
ON=C1CC(O)Cc2nonc21 (configuration not stated)	18	8	·	9	6.2	·	·
COc1ccc(C(=O)/C=C/Nc2cccc(O)c2)cc1	1	6	8	-4	-1.1	0	20620*
O=C(O)COc1ccccc1-c1nc(-c2ccccc2)c(-c2ccccc2)[nH]1	3	4	-13	7	1.0	8	3726
O=C(O)CCC1(C(=O)O)CCC(=O)c2ccccc21 (configuration not stated)	1	8	-13	7	-0.2	·	3629
CCOC(=O)c1cc2c(=O)n3ccccc3nc2n(CC(C)C)c1=NC(=O)c1c(-c2c(F)cccc2Cl)noc1C	5	2	-8	-1	-1.5	-28	2026
CC(C)CC(NC(=O)c1[nH]cnc1C(=O)NC(Cc1ccccc1)C(=O)OC(C)(C)C)C(=O)OCc1ccccc1 (configuration not stated)	0	6	·	-1	0.6	·	·
Cc1nc2c(-c3ccc(F)cc3)cnn2c(N)c1-c1ccccc1	-1	12	68*	34	-14	2	3814
Cc1c(NC(=O)C(C)OC(=O)c2ccc([N+](=O)[O-])cc2Cl)c(=O)n(-c2ccccc2)n1C (configuration not stated)	-1	1	-7	16	53	·	6223
O=C(Nc1cccc(F)c1)/C(=C\c1cccnc1)NC(=O)c1ccco1	·	·	-16	·	·	5	2134
O=C(NC1CCCCCC1)c1cc2c(=O)n3ccccc3nc2s1	-9	-1	-34	-11	2.1	-5	5276
O=C1C=CC(=O)N1c1cccc(-c2ccccc2)c1	14	6	-4	48	11	14	6070
Clc1nccc(N2CCN(c3ccccc3Cl)CC2)n1	-1	-11	·	9	-0.9	5	5894
O=C(NCC(NS(=O)(=O)OCC(Cl)(Cl)Cl)c1ccccc1)C(F)(F)F (configuration not stated)	11	4	-14	-22	3.8	1	2977
CC(C)CC(c1nnnn1C(C)(C)C)N1CCN(C2CCCC2)CC1 (configuration not stated)	·	·	-30	-8	1.3	-9	4641
COC(=O)c1cc(OC)c(OC)cc1NC(=O)CCCCCN1C(=O)CCC1=O	·	·	7	-4	-0.3	5	2501
COc1ccc(N(CC(=O)NC2CC3CCC2C3)S(=O)(=O)c2ccc(C)cc2)cc1 (configuration not stated)	4	3	2	5	2.4	-13	6164
O=C(c1ccc(-c2ccccc2)cc1)N1CCN(c2ncccn2)CC1	·	·	-16	12	2.5	·	3709
CSc1ccc(CC(=O)N2CCC(n3nccc3NC(=O)C3CC3)CC2)cc1	10	8	-37	-1	1.6	4	5958
CCc1nc2cccnc2n1-c1ccc(CC(=O)NCCOC)cc1	1	-8	-9	2	1.9	9	3201
CCCCn1c(O)c(C(C)=NCCCN(C)C)c(=O)[nH]c1=O	8	9	-11	9	5.9	-2	14900

An excerpt of these results, with each value named:
CC(C)CC(NC(=O)c1[nH]cnc1C(=O)NC(Cc1ccccc1)C(=O)OC(C)(C)C)C(=O)OCc1ccccc1 (configuration not stated)
- Mtb hypoxia inh: 0
- Mtb hypoxia inh growth: 6
- PrP UTR inh: ·
- ugtP null kill: -1
- RN4220 kill: 0.6
- BJeLR lethal: ·
- Autofluor counter: ·
Cc1nc2c(-c3ccc(F)cc3)cnn2c(N)c1-c1ccccc1
- Mtb hypoxia inh: -1
- Mtb hypoxia inh growth: 12
- PrP UTR inh: 68*
- ugtP null kill: 34
- RN4220 kill: -14
- BJeLR lethal: 2
- Autofluor counter: 3814

(further entries)
Molecule	Mtb hypoxia inh	Mtb hypoxia inh growth	PrP UTR inh	ugtP null kill	RN4220 kill	BJeLR lethal	Autofluor counter
O=C(CON=Cc1ccccc1OC(F)F)NCc1cccs1	19	6	·	0	3.1	·	·
NC(=O)c1c(-c2ccccc2)oc2ccc(O)cc12	-3	6	-13	1	-0.2	-1	22271*
Cc1ccc(S(=O)(=O)NN=Cc2ccc(O)c(O)c2)cc1[N+](=O)[O-]	10	4	·	0	8.1	·	·
COc1cccc2cc(C(C)=O)c(=O)oc12	5	0	-5	4	2.1	4	19894*
CCCC(=O)c1ccc(N2CCN(C(=O)c3cccs3)CC2)c(F)c1	8	-2	-15	14	12	5	3876
O=C(/C=C/c1ccc(F)cc1)NC(=S)NNC(=O)[C@H]1C[C@@H]1c1ccccc1	-2	3	-19	9	38	-1	5749
Cc1ccccc1-c1cc(C(=O)O)nn1CC1CC(c2cccc([N+](=O)[O-])c2)=NO1 (configuration not stated)	6	0	-22	12	4.7	·	4008
Cn1cc(-c2ccccc2)cc(C#N)c1=O	10	-6	1	8	6.7	3	3732
Cc1ccccc1-n1cnnc1SCC(=O)Nc1cccnc1Cl	-1	13	-17	9	1.4	29	4105
COCCN(C(=O)COC(=O)Cc1c(C)nc2ccccc2c1C)c1c(N)n(CC(C)C)c(=O)[nH]c1=O	-9	5	-4	-1	-0.7	·	8661
COc1ccccc1OC(=O)Cc1cccc2ccccc12	5	7	-4	1	1.1	3	3967
COc1ccc2c(c1)CCN1C2CCN2C(=O)CCC21 (configuration not stated)	·	·	2	·	·	9	2879
